# Sa growth inh – inhibitors of Staphylococcus aureus growth at 42 °C. S. aureus RN4220 growth, OD600, 20 h; hits give low values. relative growth, % (concentration not given with the values). 170,000 compounds, 0.53% hits. AID 720641;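 active = growth at 42 °C up to 50% and 20 or more points under that at 30 °C, or under 10% at both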;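 also: 300 nL library stock went into each well; scaled to the means of positive and negative controls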
# HCMV NEC inh – inhibitors of HCMV UL50-UL53 nuclear egress complex interaction | HTRF UL50-UL53 interaction, normalized percent inhibition | inhibition, % (concentration not given with the values) | 190,000 compounds, 0.15% hits | AID 1918969;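 active = both replicates at 50% or more, plus weaker picks with an unusually low signal ratio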;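 also: stock transfer was 100 nL into about 20 µL; 0% = negative control wells and 100% = wells with untagged competitor protein; inactives centre near -12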
# GIV Gai3 FP – GIV-Galpha-i interaction inhibition. 210,000 compounds, 0.42% hits. percent of control (FP), % (no concentration beside the values). P08753. Galpha-i3/FITC-GIV peptide fluorescence polarization, 90 min; hits give low values; scaled: aluminum fluoride 0%, vehicle 100%. AID 1224905;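 active = replicate mean at 85% of control or lower, very high polarization wells dropped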;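 also: wells of about 15 µL received 100 nL stock; the first replicate is given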
# Target sequence (P08753 whole entry, looked up): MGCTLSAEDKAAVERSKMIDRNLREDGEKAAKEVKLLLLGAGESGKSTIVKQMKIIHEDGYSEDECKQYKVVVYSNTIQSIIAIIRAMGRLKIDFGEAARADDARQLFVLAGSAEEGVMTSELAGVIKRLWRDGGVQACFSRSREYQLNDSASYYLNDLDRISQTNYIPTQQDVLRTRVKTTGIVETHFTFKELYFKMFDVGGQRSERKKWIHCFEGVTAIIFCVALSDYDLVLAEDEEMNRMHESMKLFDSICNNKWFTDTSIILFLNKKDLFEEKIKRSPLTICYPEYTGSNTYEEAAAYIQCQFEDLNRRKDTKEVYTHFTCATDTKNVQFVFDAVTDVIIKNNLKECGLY
# Sa growth inh second temp – second read-out of Sa growth inh, no call of its own (marks repeat the call); relative growth, %; measured here: growth at 30 °C;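 optical density after 20 h as mean of two plates; 100% = untreated growth and lower means inhibition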
# Numbers without * were called inactive; . = no result given.
# Labels used below – A = Sa growth inh; B = Sa growth inh second temp; C = HCMV NEC inh; D = GIV Gai3 FP
Cc1nc2ccn(Cc3ccccc3)c(=O)c2cc1C(=O)O
  A: 115	B: 85	C: -17	D: 104

CCCCn1c2ccccc2c2nc3cc(OC)c(OC)cc3nc21
  A: .	B: .	C: -17	D: 95

CCC(C)c1c(O)nc(SCC(=O)NCc2ccco2)[nH]c1=O (stereo not drawn)
  A: 101	B: 82	C: -15	D: 103

CC(=O)NC(Cc1c[nH]c2ccccc12)C(=O)OCc1cc(=O)n2c3c(sc2n1)CCCC3 (stereo not drawn)
  A: 91	B: 92	C: -4	D: .

Cc1ccc(-n2c(=O)cc(N3CCc4ccccc43)[nH]c2=O)cc1
  A: 89	B: 94	C: .	D: 99

Cc1cc(C)c(NC(=O)Cn2nnc3sc4c(c3c2=O)CCC(C(C)(C)C)C4)c(C)c1 (stereo not drawn)
  A: 90	B: 85	C: -25	D: 100

N#C/C(N=Cc1cccs1)=C(\C#N)NCc1c(F)cccc1Cl
  A: 152	B: 94	C: -46	D: 102

COc1ccc(NC(=O)CSc2nnc3scc(-c4ccc(Cl)cc4)n23)cc1
  A: 96	B: 92	C: 0	D: 105

CC(=O)Nc1ccc(NC(=O)c2cc3sccc3n2Cc2ccc(F)cc2)cc1
  A: 114	B: 94	C: 16	D: 105

N#Cc1ccccc1NS(=O)(=O)c1cccs1
  A: 92	B: 83	C: -14	D: 108

CC1CCCN(C(=O)C2CCN(CC3CC=CCC3)CC2)C1 (stereo not drawn)
  A: 80	B: 109	C: 18	D: 94

CC(=O)N1c2ccc(S(=O)(=O)Nc3ccc(Cl)cc3C)cc2CC1C (stereo not drawn)
  A: 81	B: 97	C: .	D: 100

Fc1cccc(CNCc2cn[nH]c2-c2ccc(Br)cc2)c1
  A: 94	B: 62	C: .	D: 102

Cc1sc2ncnc(N3CCC(C(=O)OCC(=O)NC4CC4)CC3)c2c1C
  A: 97	B: 89	C: -12	D: .

CN(C)S(=O)(=O)c1cccc(-c2nnc(SCc3ccc4c(c3)OCCO4)o2)c1
  A: 103	B: 93	C: -12	D: .

Cc1noc(C)c1CSCC(=O)N1CC(C)SC1=Nc1ccc(Cl)cc1 (stereo not drawn)
  A: 61	B: 58	C: -29	D: .

CCN(CCO)C1CC(=O)N(c2ccccc2C)C1=O (stereo not drawn)
  A: 21	B: 10	C: -34	D: 109

N#CCC(=O)Nc1ccncc1
  A: 87	B: 87	C: -34	D: 104

O=C(c1ccccn1)N1CCN(c2ccc(C(F)(F)F)cn2)CC1
  A: 103	B: 91	C: 4	D: .

O=C(/C=C/c1ccco1)OCC(=O)C12CC3CC(CC(C3)C1)C2
  A: 102	B: 89	C: -23	D: .

c1ccn2c(Cc3nnc4ccccn34)nnc2c1
  A: 143	B: 80	C: -41	D: .

CCc1cccc(C)c1NC(=O)c1cc(-c2cccnc2)on1
  A: .	B: .	C: 2	D: 99

Cc1cccc(NC(=O)Cn2c(=O)n(-c3ccccc3Cl)c(=O)c3c(C)c(C(=O)N(C)C)sc32)c1
  A: 88	B: 80	C: .	D: 107

CCCn1c(N2CCN(Cc3ccc(Cl)cc3)CC2)nc2ccccc21
  A: 112	B: 70	C: 3	D: 101

O=C(O)c1cc(NS(=O)(=O)c2cccc(F)c2)ccc1N1CCN(c2cccc(Cl)c2)CC1
  A: .	B: .	C: -3	D: 108

# Some of these compounds in order of molar mass, rising.
# Labels used below – A = Sa growth inh; B = Sa growth inh second temp; C = HCMV NEC inh; D = GIV Gai3 FP
Cc1nc2ccn(Cc3ccccc3)c(=O)c2cc1C(=O)O
  A: 115	B: 85	C: -17	D: 104

CCCCn1c2ccccc2c2nc3cc(OC)c(OC)cc3nc21
  A: .	B: .	C: -17	D: 95

CCCn1c(N2CCN(Cc3ccc(Cl)cc3)CC2)nc2ccccc21
  A: 112	B: 70	C: 3	D: 101

# In a second layout: results already given
# Second line of a record: Sa growth inh, Sa growth inh second temp, HCMV NEC inh, GIV Gai3 FP
CC1CCCN(C(=O)C2CCN(CC3CC=CCC3)CC2)C1 (stereo not drawn)
→ 80, 109, 18, 94
CC(=O)N1c2ccc(S(=O)(=O)Nc3ccc(Cl)cc3C)cc2CC1C (stereo not drawn)
→ 81, 97, ., 100
Fc1cccc(CNCc2cn[nH]c2-c2ccc(Br)cc2)c1
→ 94, 62, ., 102
Cc1sc2ncnc(N3CCC(C(=O)OCC(=O)NC4CC4)CC3)c2c1C
→ 97, 89, -12, .
CN(C)S(=O)(=O)c1cccc(-c2nnc(SCc3ccc4c(c3)OCCO4)o2)c1
→ 103, 93, -12, .

# The listing continues.
# Labels used below – A = Sa growth inh; B = Sa growth inh second temp; C = HCMV NEC inh; D = GIV Gai3 FP
CC(=O)N=c1cccc(NC(C)=O)n1O
  A: 89	B: 113	C: 20	D: 99

CN(C)c1ccc(/C=C2/S/C(=N/O)NC2=O)cc1
  A: 100	B: 85	C: .	D: 117

CCOC(=O)c1sc(NC(=O)c2sc3ccccc3c2Cl)c(C(=O)OCC)c1C
  A: .	B: .	C: -16	D: 100

COc1ccc(OC)c(NC(=O)c2cc3cc(C)ccc3n2C)c1
  A: 97	B: 89	C: -34	D: 99

O=C(c1cccc(F)c1)N1CCC(c2c[nH]c3ccccc23)(c2c[nH]c3ccccc23)CC1
  A: 87	B: 87	C: -35	D: 104

Cc1ccc(C)n1CCC(C)C
  A: 72	B: 90	C: -22	D: .

Cn1c(=O)c2c(O)c(C=Nc3ccc(Cl)cc3)c(=O)n(C)c2n(C)c1=O
  A: 119	B: 99	C: 17	D: 98

CC(=O)NC(c1ccccc1)c1ccc2cccnc2c1O (stereo not drawn)
  A: 87	B: 75	C: .	D: 96

COc1ccc(NC(=O)/C(=C/c2ccc3c(c2)OCO3)NC(C)=O)cc1
  A: 96	B: 94	C: -9	D: 107

CCOc1ccc(N2C(=O)CN(C(C)CC)[C@H]3CS(=O)(=O)C[C@H]32)cc1 (stereo partly drawn)
  A: .	B: .	C: 6	D: 105

Oc1ccc(N=Cc2cn(-c3ccccc3)nc2-c2ccco2)cc1
  A: 62	B: 57	C: -32	D: .

CC1C2=C(CCCC2=O)Nc2nc3ccccc3n21 (stereo not drawn)
  A: 96	B: 90	C: -17	D: 101

COc1ccc(C(=O)NC(c2ccccc2Cl)c2cc(Cl)c3cccnc3c2O)cc1 (stereo not drawn)
  A: 102	B: 83	C: .	D: 92

Cc1cccc(C(=O)N2CCN(c3nc4cc(Br)ccc4n4cccc34)CC2)c1
  A: .	B: .	C: 12	D: 101

Cc1ccc(-c2nc3ncccn3c2NC2CCCC2)o1
  A: 94	B: 90	C: -15	D: 104

Cc1c(C(=O)NCc2ccccc2Cl)sc2nc3n(c(=O)c12)CCCC3
  A: 108	B: 87	C: -12	D: 102

O=C(NCc1ccccc1Br)C1CCN(c2nc3ccccc3nc2C(F)(F)F)CC1
  A: .	B: .	C: -15	D: 100

Cc1nc2c(c(C)c1CCC(=O)NC(C)C)c(=O)n(C)c(=O)n2C
  A: 76	B: 86	C: -17	D: 99

Cc1oc(-c2cc(Cl)ccc2Cl)cc1C(=O)NCCO
  A: 102	B: 88	C: -16	D: .

CCCCCC1=CCC/C1=N\NC(=O)c1ccc(N(CC)CC)cc1
  A: 106	B: 100	C: 15	D: .

COC(=O)c1ccccc1S(=O)(=O)N1CCc2[nH]c3ccc(F)cc3c2C1
  A: 113	B: 76	C: -7	D: 103

O=C(C1CCN(c2ccc(Sc3ccc(Br)cc3)nn2)CC1)N1CCOCC1
  A: .	B: .	C: -46	D: 105

COc1cc(C2c3c(-c4c(C)cc(C)cc4O)n[nH]c3C(=O)N2CCO)cc(OC)c1OC (stereo not drawn)
  A: 79	B: 94	C: 5	D: 92

COc1cccc(/C=C/C(=O)O)c1
  A: 94	B: 83	C: -27	D: .

O=C1COc2cc(S(=O)(=O)N3CCCC3C(=O)N3CCc4ccccc43)c(Cl)cc2N1 (stereo not drawn)
  A: .	B: .	C: -6	D: 102

# Only Sa growth inh, HCMV NEC inh and Sa growth inh second temp, for three of the compounds above:
compound,Sa growth inh,HCMV NEC inh,Sa growth inh second temp
Oc1ccc(N=Cc2cn(-c3ccccc3)nc2-c2ccco2)cc1,62,-32,57
COc1cccc(/C=C/C(=O)O)c1,94,-27,83
O=C(NCc1ccccc1Br)C1CCN(c2nc3ccccc3nc2C(F)(F)F)CC1,.,-15,.

# Next compounds.
# Labels used below – A = Sa growth inh; B = Sa growth inh second temp; C = HCMV NEC inh; D = GIV Gai3 FP
COc1ccc(-c2noc(-c3cc(C4CC4)[nH]n3)n2)cc1
  A: .	B: .	C: -21	D: 101

CC(C)CC(C(=O)NCc1ccccc1F)N1C(=O)C2CC=CCC2C1=O (stereo not drawn)
  A: 88	B: 90	C: -14	D: .

O=C(COc1ccc(Br)cc1)NCC(c1ccccc1)c1c[nH]c2ccccc12 (stereo not drawn)
  A: .	B: .	C: -23	D: 103

O=S(=O)(NCCC1=CCCCC1)c1ccc(-n2cccn2)cc1
  A: 104	B: 99	C: .	D: 109

CN(Cc1ccccc1)c1ncnc2c1c(-c1ccccc1)cn2-c1ccccc1
  A: .	B: .	C: -24	D: 102

COc1ccccc1NS(=O)(=O)c1ccc2oc(SCc3cn4c(C)cc(C)nc4n3)nc2c1
  A: 89	B: 63	C: 3	D: .

CCCCNC(=O)CSC1=Nc2ccccc2C2=NC(CCC(=O)NCc3ccccc3OC)C(=O)N12 (stereo not drawn)
  A: 94	B: 90	C: .	D: 103

COc1ccc(-c2ccc(NS(=O)(=O)c3ccccc3Cl)cc2)nn1
  A: 84	B: 84	C: .	D: 105

CC1Cc2ccccc2N1C(=O)CSC1=NCCS1 (stereo not drawn)
  A: 118	B: 92	C: -16	D: .

O=C(O)CCn1c(-c2cccs2)n[nH]c1=S
  A: 107	B: 93	C: -5	D: .

CCc1nn(CC(=O)NCCCN2CCN(C)CC2)c(=O)c2cc3occc3n12
  A: 100	B: 89	C: 7	D: 108

CCn1nnc2c(NCCc3ccc(S(N)(=O)=O)cc3)ncnc21
  A: 93	B: 84	C: -23	D: 96

CCn1c(=O)n(Cc2ccc(C)cc2)c2ccccc21
  A: .	B: .	C: -31	D: 96

COc1ccc(CNC(=O)C(=O)NCC(c2cccnc2)N2CCN(c3ccccc3)CC2)cc1 (stereo not drawn)
  A: 111	B: 81	C: -12	D: 106

COc1ccc(-c2nsc3c(N4CCN(S(=O)(=O)c5cccc(F)c5)CC4)ncnc23)cc1
  A: 78	B: 106	C: 4	D: 102

COc1ccc(NC(=O)N2CCC(n3cnc4ccccc43)CC2)cc1
  A: 113	B: 85	C: -11	D: 105

CCOC(=O)Cn1c2c(c(=N)c3c1CCC3)CCC2
  A: 93	B: 78	C: -20	D: 101

Cc1c(NC(=O)c2cc(-c3ccccc3O)on2)c(=O)n(-c2ccccc2)n1C
  A: 99	B: 88	C: -18	D: 110

Cc1ccc(-c2ccc(=O)n(CCC(=O)NCCN3CCN(c4cccc(Cl)c4)CC3)n2)cc1
  A: 77	B: 26	C: .	D: 101

CCc1ccc(NC(=O)CSc2ccnc(=O)[nH]2)cc1
  A: 133	B: 84	C: .	D: 106

CCS(=O)(=O)c1nc2ccccc2n1Cc1ccccc1Cl
  A: 97	B: 73	C: -5	D: 100

Cn1c(SCCS(=O)(=O)c2ccc(F)cc2)nnc1C(F)(F)F
  A: 99	B: 86	C: -14	D: 98

CCOc1ccc(-c2csc(/C(C#N)=C/c3ccc(Br)cc3)n2)cc1
  A: 102	B: 91	C: -36	D: 113

CCC1CCC(N2CCN(c3ccccc3F)CC2)CC1 (stereo not drawn)
  A: 97	B: 105	C: 2	D: 109

N#CCC(=O)N1N=CCC1(O)C(F)(F)F (stereo not drawn)
  A: 87	B: 89	C: -16	D: .

# (continued)
# Labels used below – A = Sa growth inh; B = Sa growth inh second temp; C = HCMV NEC inh; D = GIV Gai3 FP
Cn1c(=NC(=O)c2ccc3c(c2)OCCO3)sc2cc(S(C)(=O)=O)ccc21
  A: 81	B: 90	C: .	D: 106

CC(C)CNCC(=O)Nc1cc(C(F)(F)F)cc(C(F)(F)F)c1
  A: 74	B: 89	C: -6	D: .

CC(=O)N[C@H]1[C@H](Oc2ccc(Cl)cc2Cl)O[C@H](CO)[C@@H](O)[C@@H]1O
  A: 101	B: 92	C: 5	D: .

N=C1S/C(=C\c2ccccc2)C(=O)N1c1ccc(F)cc1
  A: 91	B: 84	C: .	D: 100

NC(=O)C1CCN(C(=O)CCCn2c(=S)[nH]c3ccccc3c2=O)CC1
  A: 105	B: 90	C: -13	D: 102

Cn1cnnc1SCc1nc2ccccc2[nH]1
  A: 84	B: 94	C: 14	D: 103

CCn1nnnc1NCc1cccc(Cl)c1
  A: 103	B: 77	C: -19	D: 101

Cc1ccc(CNCc2c(C(=O)O)n(Cc3ccc(C)cc3)c3cc(C)ccc23)cc1
  A: 113	B: 92	C: .	D: 105

CCCCSc1nnc2c(n1)OC(c1cc3c(cc1[N+](=O)[O-])OCO3)Nc1ccccc1-2 (stereo not drawn)
  A: .	B: .	C: -77	D: 101

# 4 entries from above, in CSV form:
smiles,Sa growth inh,Sa growth inh second temp,HCMV NEC inh,GIV Gai3 FP
Cn1cnnc1SCc1nc2ccccc2[nH]1,84,94,14,103
CCn1nnnc1NCc1cccc(Cl)c1,103,77,-19,101
Cc1ccc(CNCc2c(C(=O)O)n(Cc3ccc(C)cc3)c3cc(C)ccc23)cc1,113,92,.,105
CCCCSc1nnc2c(n1)OC(c1cc3c(cc1[N+](=O)[O-])OCO3)Nc1ccccc1-2 (stereo not drawn),.,.,-77,101
